Assay outcomes as filed in PubChem BioAssay.
MLL AF4-AF9 inh – MLL-AF4/AF9 protein interaction inhibition. P42568. AlphaScreen, biotin-AF4 peptide binding to FLAG-AF9. inhibition, % at 10 µM. 350,000 tested, 0.47% active. AID 651704;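 active means every replicate reaching a set inhibition limit, whatever the replicate mean, cut at about 25% in these data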;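 further: 0% = plate neutral control median and 100% = total signal loss; the record names both 10 and 1 µM as test concentration; the first replicate is given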
Target sequence (P42568 whole entry, looked up): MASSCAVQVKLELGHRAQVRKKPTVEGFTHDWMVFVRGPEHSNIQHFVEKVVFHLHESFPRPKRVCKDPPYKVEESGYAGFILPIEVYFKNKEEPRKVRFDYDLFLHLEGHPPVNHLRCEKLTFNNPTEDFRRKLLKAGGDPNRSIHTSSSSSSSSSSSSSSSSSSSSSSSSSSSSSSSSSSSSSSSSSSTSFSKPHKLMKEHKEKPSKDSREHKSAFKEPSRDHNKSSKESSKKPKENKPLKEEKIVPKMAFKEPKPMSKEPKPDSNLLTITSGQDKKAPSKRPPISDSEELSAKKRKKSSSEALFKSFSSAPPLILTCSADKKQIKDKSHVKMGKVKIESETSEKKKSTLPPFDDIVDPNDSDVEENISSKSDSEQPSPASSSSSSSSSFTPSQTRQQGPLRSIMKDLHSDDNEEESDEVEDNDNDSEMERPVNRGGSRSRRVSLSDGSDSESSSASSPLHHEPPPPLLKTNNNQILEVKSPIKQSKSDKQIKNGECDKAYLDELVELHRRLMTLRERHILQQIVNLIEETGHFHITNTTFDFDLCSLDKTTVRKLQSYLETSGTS
FGF22 binding – shifts melting point of recombinant human FGF22 | Q9HCT0 | recombinant FGF22 thermal shift, SYPRO orange fluorescence; percent of sucrose octasulfate shift, DMSO zero | calls only at 9.99 µM | 340,000 tested, 1.5% active;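 active means melting point raised past a set limit in the mean and every replicate; three in four hits are not shown here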
Target sequence (Q9HCT0 whole entry, looked up): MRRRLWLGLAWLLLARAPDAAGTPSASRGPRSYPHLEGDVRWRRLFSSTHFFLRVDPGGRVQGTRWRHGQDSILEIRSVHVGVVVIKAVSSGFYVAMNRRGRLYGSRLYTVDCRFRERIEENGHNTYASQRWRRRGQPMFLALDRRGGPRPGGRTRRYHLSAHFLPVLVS
rRNA inh HTS – inhibitors of bacterial rRNA selective over humanized ribosomes; E. coli WT GFP vs humanized-ribosome RFP mutants, fluorescence, 24 h; active compounds read low; DMSO median 0, no signal -100; GFP signal change (wild-type ribosome), % (test concentration not listed); 350,000 tested, 1.6% active; AID 720706;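 active means significant combined selectivity score with lowered wild-type GFP, culture density cut under 30%, mutant RFP and density less affected; inactive means any of these conditions unmet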; further: one replicate is shown; some compounds called inactive have numbers as strong as hits
rRNA inh HTS OD600 – also measured in rRNA inh HTS; calls as there; OD600 change, %; measured here: OD600 growth;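 optical density of the mix in the first replicate; 0 = DMSO median and -100 = no signal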
rRNA inh HTS RFP – second read-out of rRNA inh HTS, no call of its own (marks repeat the call); RFP signal change, %; measured here: RFP humanized mutant strains;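 first replicate; 0 = DMSO median and -100 = no signal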
* hit, by the source's call; i = inactive; & = joins results of further samples.

SMILES | MLL AF4-AF9 inh | FGF22 binding | rRNA inh HTS | rRNA inh HTS OD600 | rRNA inh HTS RFP
C[C@@H]1CN([C@H](C)CO)S(=O)(=O)c2ccc(/C=C/c3ccccc3)cc2O[C@H]1CN(C)Cc1ccccc1 | -2.0 | i | -1 | -4 | -0.2
C[C@@H]1CCCCO[C@@H](CN(C)Cc2ccc3c(c2)OCO3)[C@@H](C)CN([C@H](C)CO)C(=O)c2cc(NC(=O)Nc3ccc4c(c3)OCO4)ccc2O1 | 3.3 | i | -1 | -4 | 4.0
Cc1ccc(S(=O)(=O)N[C@@H]2CC[C@@H](CC(=O)NCc3ccc(Cl)c(Cl)c3)O[C@H]2CO)cc1 | 2.4 | i | -4 | 3 | 3.1
CC1Cc2ccccc2N1S(=O)(=O)c1cccc(C(=O)N2CCCCC2)c1 (configuration not stated) | 0.8 | i | -13 | -17 | -0.9
CCOc1ccc(-c2cc(C(=O)Nc3ccc(F)cc3)[nH]n2)c(C)c1 | 0.3 | i | -2 | 12 | -8.0
O=C(NCC[C@@H]1CC[C@H](NS(=O)(=O)c2cccc(F)c2)[C@@H](CO)O1)c1cnccn1 | 0.1 | i | -3 | 5 | -4.8
CC1(C(=O)NS(=O)(=O)c2ccccc2Cl)CCN1C(=O)c1ccccc1CCc1ccccc1 (configuration not stated) | -4.3 | i | -14 | 2 | 6.3
C[C@@H]1CN([C@H](C)CO)C(=O)c2cccc(NC(=O)C3CCCCC3)c2O[C@H]1CN(C)C(=O)Nc1ccc2c(c1)OCO2 | 2.7 | i | -2 | 5 | -2.3
O=S(=O)(NCC[C@@H]1CC[C@H](NS(=O)(=O)c2ccccc2Cl)[C@H](CO)O1)c1ccc(F)cc1 | -1.7 | i | -5 | -3 | -1.3
C[C@H](CO)N1C[C@H](C)[C@H](CN(C)C(=O)Nc2ccc(F)cc2)Oc2c(NC(=O)Nc3ccc(F)cc3)cccc2C1=O | 0.8 | i | -11 | -13 | 2.7
CC1(C(=O)NS(=O)(=O)c2ccc(Cl)cc2)CCN1C(=O)C1CC1 (configuration not stated) | -1.7 | i | 8 | 13 | -11
CCCCC(=O)N(C)c1c(CC)nc2c(OCCC3CCCCC3)cccn12 | 4.9 | i | -26 | -50 | 28
Nc1cc(SCc2ccc([N+](=O)[O-])cc2)ncn1 | 2.5 | i | -22 | -23 | 18
COCC(=O)Nc1ccc2c(c1)OC[C@@H](C)N(CCc1ccccc1)C[C@H](C)[C@@H](OC)CN(C)C2=O | 4.5 | i | -8 | -12 | 1.7
CO[C@@H]1CN(C)C(=O)c2ccc(NS(=O)(=O)c3ccc(Cl)cc3)cc2OC[C@@H](C)N(C(=O)Cc2cccnc2)C[C@H]1C | -19 | i | 0 | -7 | -1.4
C[C@@H]1CN([C@H](C)CO)C(=O)c2cccc(NC(=O)Nc3ccccc3)c2O[C@H]1CN(C)S(=O)(=O)c1ccc(Cl)cc1 | 0.5 | i | 0 | -12 | -0.9
COc1cccc(-c2ccc3c(c2)O[C@@H](CN(C)C(C)=O)[C@@H](C)CN([C@@H](C)CO)S3(=O)=O)c1 | 1.2 | i | -4 | -1 | 0.3
C[C@H](CO)N1C[C@H](C)[C@H](CN(C)Cc2cccc(C(=O)O)c2)OCc2cnnn2CCCC1=O | -3.2 | i | -3 | -1 | 1.6
CCC(=O)N1CC2(C1)[C@@H](c1ccccc1)[C@H](CO)N2C(=O)c1cccnc1 | -2.1 | i | 4 | 5 | -1.2
CN1CCCCC1(C)C(=O)NCc1ccc(C(C)(C)C)cc1 (configuration not stated) | 1.8 | i | 9 | 9 | 1.6
Cc1nn(C2CCS(=O)(=O)C2)c2nc(C3CC3)cc(C(=O)Nc3cccc(C#N)c3)c12 (configuration not stated) | 6.5 | i | -10 | -10 | 0.3
COc1ccc(NC(=O)Nc2ccc3c(c2)[C@@H]2C[C@@H](CC(=O)NCC4CC4)O[C@H](CO)[C@@H]2O3)cc1 | -2.2 | i | 2 | 6 | -0.6
Cc1ccc(CN(C)C(=O)c2ccccc2NC(=O)c2ccccc2)o1 | 2.2 | i | 2 | 0 | -1.3
Cc1ccccc1CN1C(=O)CN(S(C)(=O)=O)CC1(C)C(=O)NC(C)C (configuration not stated) | -1.6 | i | 10 | 11 | 4.1
C[C@@H]1CN([C@@H](C)CO)C(=O)c2cccc(NC(=O)c3ccc(-c4nccs4)cc3)c2O[C@H]1CN(C)S(C)(=O)=O | -2.0 | i | 0 | 0 | -0.8
Cc1ccc(S(=O)(=O)N2CCN(C(=O)COC(=O)CNC(=O)c3ccc(Cl)cc3Cl)CC2)c(C)c1 | 0.8 | i | -1 | -14 | -1.3
CC1(C(=O)Nc2ccc3c(c2)OCO3)CCN1C(=O)c1ccco1 (configuration not stated) | -3.5 | i | 7 | 14 | -2.7
C[C@H]1CN([C@@H](C)CO)C(=O)Cc2cc(NC(=O)C3CC3)ccc2O[C@H]1CN(C)C | -0.4 | i | 2 | 6 | 0.0
C[C@@H]1CN([C@@H](C)CO)C(=O)CCCn2nncc2CO[C@@H]1CN(C)Cc1ccccc1C(F)(F)F | 2.0 | i | -8 | -17 | 1.7
CCOC(=O)C1CCc2c(ccc3ccccc23)N1CCC#N (configuration not stated) | 4.4 | i | -32 | -34 | -1.2
C[C@H]1CN([C@@H](C)CO)C(=O)c2cccc(NS(C)(=O)=O)c2O[C@H]1CN(C)C(=O)Nc1ccc2c(c1)OCO2 | -1.5 | i | 3 | 1 | -0.7
CO[C@H](CN(C)S(=O)(=O)c1ccc(C)cc1)[C@@H](C)CN(Cc1ccccc1Cl)[C@@H](C)CO | -0.3 | i | -2 | -10 | 4.9
C[C@@H]1CN([C@@H](C)CO)C(=O)c2cc(NC(=O)Cn3cnnn3)ccc2O[C@@H]1CN(C)Cc1ccccc1 | 0.9 | i | 1 | 16 | -0.9
O=C(C[C@H]1C=C[C@H](NC(=O)Nc2cc(F)ccc2F)[C@H](CO)O1)NCc1ccccn1 | -2.6 | i | 0 | 3 | -0.9
C[C@@H]1CN([C@@H](C)CO)C(=O)c2cc(C#Cc3ccccc3F)cnc2O[C@@H]1CN(C)C | 7.7 | i | 5 | 12 | 1.9
C[C@@H]1CCCCO[C@@H](CN(C)S(=O)(=O)c2ccccc2)[C@H](C)CN([C@H](C)CO)C(=O)c2cc(NC(=O)Nc3ccc(C(F)(F)F)cc3)ccc2O1 | 2.0 | i | 2 | 2 | -1.2
C[C@H]1CN([C@@H](C)CO)C(=O)c2cc(C#Cc3ccc(F)cc3)cnc2O[C@H]1CN(C)C(=O)Nc1ccc(F)cc1 | -5.6 | i | -8 | -12 | 5.2
C[C@H](CO)N1C[C@H](C)[C@@H](CN(C)C(=O)C2CC2)Oc2cc(C#Cc3cccnc3)ccc2S1(=O)=O | 1.5 | i | -6 | -19 | -1.7
COc1ccc(CN(C)C(=O)c2cccc(NC(=O)CC3SC(N4CCCCC4)=NC3=O)c2)c(OC)c1 (configuration not stated) | -34 | i | -11 | -13 | 3.8
CCN(CC(=O)NCc1ccc(F)cc1)C(=O)C1CCN(S(=O)(=O)c2ccc(C(C)C)cc2)CC1 | -22 | i | 0 | 2 | 1.8
COC(=O)[C@H](CC(C)C)NC(=O)/C=C/[C@H]1O[C@@H](n2cc(C)c(=O)[nH]c2=O)C[C@@H]1O | -1.9 | i | 2 | 15 | -3.3
CO[C@@H](CN(C)Cc1cc(F)ccc1F)[C@H](C)CN([C@H](C)CO)S(=O)(=O)c1ccc(F)cc1 | -5.9 | i | 3 | -2 | -0.3
COc1cccc(S(=O)(=O)N(C)C[C@@H]2Oc3ncc(C#CCN(C)C)cc3C(=O)N([C@H](C)CO)C[C@@H]2C)c1 | -3.9&-3.8 | i | 0 | 0 | 2.2
COc1ccc(OC)c(CN2CCN(C(=O)c3cccc(S(=O)(=O)Nc4ccc(F)cc4)c3)CC2)c1 | 1.4 | i | 3 | -31 | 9.6
C[C@H](CO)N1C[C@H](C)[C@H](CN(C)Cc2ccc(C(F)(F)F)cc2)Oc2ccc(NS(=O)(=O)c3ccccc3)cc2CC1=O | -7.8 | i | -5 | 1 | -0.1
C[C@H]1CN([C@@H](C)CO)S(=O)(=O)c2ccc(C#Cc3ccncc3)cc2O[C@H]1CN(C)C(=O)C1CCC1 | -0.2 | i | -9 | -14 | 1.7
Cc1ccc(C(O)c2ncc(-c3ccc(F)cc3)[nH]2)c(C)c1 (configuration not stated) | 3.3 | i | -1 | -7 | 0.9
COc1ccccc1-n1c(SCC(=O)N(C)C)nnc1-c1ccco1 | -9.6 | i | 9 | 9 | 0.3

Next section; the last 2 above are carried over.
SMILES | MLL AF4-AF9 inh | FGF22 binding | rRNA inh HTS | rRNA inh HTS OD600 | rRNA inh HTS RFP
Cc1ccc(C(O)c2ncc(-c3ccc(F)cc3)[nH]2)c(C)c1 (configuration not stated) | 3.3 | i | -1 | -7 | 0.9
COc1ccccc1-n1c(SCC(=O)N(C)C)nnc1-c1ccco1 | -9.6 | i | 9 | 9 | 0.3
CNC(=O)C[C@@H]1CC[C@@H]2[C@H](COC[C@H](O)CN2S(=O)(=O)c2cccc(Cl)c2)O1 | 1.9 | i | 3 | 1 | -0.1
COc1ccc(S(=O)(=O)N[C@H]2CC[C@H](CC(=O)N3CCC(Cc4ccccc4)CC3)O[C@@H]2CO)cc1 | 4.6 | i | 8 | -17 | 6.8
CCOC(=O)N(C)C[C@@H]1OCc2cnnn2CCCC(=O)N([C@H](C)CO)C[C@@H]1C | 1.3&0.8&-1.2 | i | 6&1 | 6&-1 | 0.7&-2.6
CN(C[C@@H]1N[C@H](CO)[C@@H]1c1ccc(C2=CCCC2)cc1)S(C)(=O)=O | 2.2 | i | 3 | 6 | 1.0
COc1ccc(S(=O)(=O)N2CCOCC2)cc1NC(=O)C1CC(=O)N(c2ccc3c(c2)OCCO3)C1 (configuration not stated) | 1.8 | i | 9 | 4 | 1.7
C[C@H]1CN([C@@H](C)CO)C(=O)c2cc(NC(=O)CCCCCC(=O)Nc3ccccc3N)ccc2O[C@@H]1CN(C)Cc1ccncc1 | -3.2 | i | 1 | 9 | -1.7
C[C@H]1CN([C@@H](C)CO)C(=O)CCCn2nncc2CO[C@@H]1CN(C)S(=O)(=O)c1ccc(Oc2ccccc2)cc1 | -32 | i | -2 | -11 | 1.9
C[C@@H]1CN([C@H](C)CO)S(=O)(=O)c2ccc(C3=CCCC3)cc2O[C@@H]1CN(C)Cc1ccccn1 | -0.6 | i | -5 | -21 | 5.0
CCCCNC(=O)c1nc(-c2ccncc2)oc1-c1ccc(OC(F)(F)F)cc1 | -1.7 | i | -2 | 3 | 4.8
CO[C@@H]1CN(C)C(=O)c2ccc(NC(=O)Nc3cccc(F)c3)cc2OC[C@H](C)N(C(=O)Nc2c(C)noc2C)C[C@@H]1C | 4.4 | i | -1 | 4 | 1.3
COc1ccccc1S(=O)(=O)N[C@@H]1C=C[C@H](CC(=O)N2CCN(C)CC2)O[C@H]1CO | -0.7 | i | 0 | -4 | -3.1
CC1(C(=O)NCc2cccc3ccccc23)CCN1C(=O)C1(c2ccccc2)CC1 (configuration not stated) | -5.1 | i | -21 | -55 | -6.9

Sorted by value in rRNA inh HTS RFP (falling): 6 of the compounds above.
SMILES | MLL AF4-AF9 inh | FGF22 binding | rRNA inh HTS | rRNA inh HTS OD600 | rRNA inh HTS RFP
Cc1ccccc1CN1C(=O)CN(S(C)(=O)=O)CC1(C)C(=O)NC(C)C (configuration not stated) | -1.6 | i | 10 | 11 | 4.1
COc1cccc(S(=O)(=O)N(C)C[C@@H]2Oc3ncc(C#CCN(C)C)cc3C(=O)N([C@H](C)CO)C[C@@H]2C)c1 | -3.9&-3.8 | i | 0 | 0 | 2.2
C[C@@H]1CN([C@@H](C)CO)C(=O)c2cc(C#Cc3ccccc3F)cnc2O[C@@H]1CN(C)C | 7.7 | i | 5 | 12 | 1.9
CN1CCCCC1(C)C(=O)NCc1ccc(C(C)(C)C)cc1 (configuration not stated) | 1.8 | i | 9 | 9 | 1.6
CN(C[C@@H]1N[C@H](CO)[C@@H]1c1ccc(C2=CCCC2)cc1)S(C)(=O)=O | 2.2 | i | 3 | 6 | 1.0
C[C@H]1CN([C@@H](C)CO)C(=O)c2cccc(NS(C)(=O)=O)c2O[C@H]1CN(C)C(=O)Nc1ccc2c(c1)OCO2 | -1.5 | i | 3 | 1 | -0.7

(next part)
SMILES | MLL AF4-AF9 inh | FGF22 binding | rRNA inh HTS | rRNA inh HTS OD600 | rRNA inh HTS RFP
Cc1ccc(S(=O)(=O)N[C@H]2CC[C@H](CCn3cc(-c4cccc(F)c4)nn3)O[C@H]2CO)cc1 | 0.5 | i | -1 | -8 | 0.2
N#C[C@@H]1[C@H](c2ccccc2)[C@H](CO)N1C(=O)CN1CCOCC1 | -1.2 | i | 14 | 21 | 0.4
CNC[C@H]1Oc2ccc(NC(=O)NC(C)C)cc2C(=O)N([C@@H](C)CO)C[C@H]1C | -3.7 | i | 3 | 8 | 0.4
O=C(C[C@H]1CC[C@@H](NC(=O)c2ccccc2)[C@H](CO)O1)NCc1ccc(Oc2ccccc2)cc1 | -2.4 | i | -7 | -6 | -1.0
C[C@H]1CN([C@@H](C)CO)C(=O)Cc2cc(N(C)C)ccc2O[C@H]1CN(C)C(=O)NC1CCCCC1 | -1.1 | i | 1 | 2 | 0.4

The list is partial, so the mix of outcomes need not match the whole.
